# Assay outcomes from PubChem.
# Insulin prom inh: inhibitors of insulin promoter-driven GFP, primary screen, imaging, TRM-6 cells (human fetal islet line), eGFP reporter, cell count. reporter expression induced with tamoxifen. inhibition, % at 2 µM. 0.9% of 130,000 active;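 active means inhibition above the mean plus 3 SD, with well images judged a real hit on visual review, cut at about 60% in these data, passing the limit was not always enough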
# HSV replic up: enhancers of HSV replication in host cells, fold increase, host cell viability; maximum fold increase; AID 1956, 2009; 0.005% of 220,000 active; HSV replication augmentation in cells;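 active means peak rise of 1.5-fold or more in the series; tested in PC3 cells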;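 further: first round at 10 µM; read as green reporter fluorescence; hits show the peak of a series up to 25 µM; 1 = signal of infected wells without compound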
# RGS16-Gao: modulators of RGS16 binding to Galphao, primary screen, biochemical, human proteins, multiplexed bead flow cytometry; 0.38% of 220,000 active; Regulator of G-protein signaling 16 (Homo sapiens) + Guanine nucleotide-binding protein …; binding response (% of control), % at 10 µM; bead-based flow cytometry RGS16-Galphao binding, fluorescence; actives lie on both sides;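 active means below 25% or above 175%, edge rows of some plates excepted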;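 further: Galphao activated by GDP with aluminum fluoride before binding; 100% = wells without compound and 0% = beads without RGS; some results beyond the cut were filed as inactive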
# Target sequence (O15492 whole entry, looked up): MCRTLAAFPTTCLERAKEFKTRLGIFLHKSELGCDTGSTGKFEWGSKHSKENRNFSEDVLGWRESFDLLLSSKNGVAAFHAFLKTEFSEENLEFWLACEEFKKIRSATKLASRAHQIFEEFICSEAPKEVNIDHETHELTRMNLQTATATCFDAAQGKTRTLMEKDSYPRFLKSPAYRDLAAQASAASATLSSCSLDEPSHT
# Target sequence (P09471 whole entry, looked up): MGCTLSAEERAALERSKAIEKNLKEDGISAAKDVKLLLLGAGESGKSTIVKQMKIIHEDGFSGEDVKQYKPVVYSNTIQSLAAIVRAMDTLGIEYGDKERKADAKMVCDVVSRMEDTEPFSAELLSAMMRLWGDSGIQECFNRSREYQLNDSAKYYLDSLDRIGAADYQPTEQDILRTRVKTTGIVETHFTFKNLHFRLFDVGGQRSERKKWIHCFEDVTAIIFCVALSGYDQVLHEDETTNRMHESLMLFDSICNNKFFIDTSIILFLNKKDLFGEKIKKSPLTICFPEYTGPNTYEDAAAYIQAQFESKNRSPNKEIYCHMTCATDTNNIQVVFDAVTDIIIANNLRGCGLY
# GALR2 agonist: GALR2 receptor agonists, primary screen, cell-based; GALR2-expressing cells, agonist activation read-out; activation, %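 (tested at 5 µM)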; 0.48% of 140,000 active; AID 803, 2007;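 active means above mean plus 3 SD of all compounds, about 5% in these data, not always enough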;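 further: 0% = vehicle buffer wells and 100% = reference agonist at full effect; tested in CHO reporter cells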
# Target sequence (O43603 whole entry, looked up): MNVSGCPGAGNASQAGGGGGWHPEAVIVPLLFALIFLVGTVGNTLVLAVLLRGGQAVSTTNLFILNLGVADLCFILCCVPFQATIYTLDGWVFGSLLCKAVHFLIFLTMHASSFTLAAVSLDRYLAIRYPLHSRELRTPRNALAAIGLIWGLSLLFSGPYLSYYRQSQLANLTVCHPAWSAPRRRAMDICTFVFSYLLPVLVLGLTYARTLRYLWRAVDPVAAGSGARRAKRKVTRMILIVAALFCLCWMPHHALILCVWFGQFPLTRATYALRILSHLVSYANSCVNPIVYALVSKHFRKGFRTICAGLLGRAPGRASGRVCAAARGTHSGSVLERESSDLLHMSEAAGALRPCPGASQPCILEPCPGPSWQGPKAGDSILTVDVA
# PKD1 inh: inhibitors of human PKD1 kinase, biochemical, fluorescence polarization; Serine/threonine-protein kinase D1 (Homo sapiens), Q15139; PKD1 kinase fluorescence polarization assay; inhibition, %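 (about 10 µM by stock and volumes)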; 0.056% of 200,000 active;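 active means inhibition of 50% or more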;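 further: controls were vehicle for no effect and a reference inhibitor for full effect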
# Insulin prom inh cell count: recorded beside Insulin prom inh, whose call it bears; normalized cell count, %; measured here: cell count, toxicity; reference of the scale not given here;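 cells exposed to compound for 48 h; stained nuclei by imaging scaled within each plate; lower means fewer cells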
# HSV replic up primary fold: further read-out of HSV replic up, marked with its call; fold increase; compound at 10 µM; measured here: primary screen fold increase 10 uM; tested in PC3 cells;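 GFP signal in the first replicate; 1 = infected wells without compound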
# An asterisk follows results filed as active; i = inactive; nt = no result given.
SMILES,Insulin prom inh,Insulin prom inh cell count,HSV replic up,HSV replic up primary fold,RGS16-Gao,GALR2 agonist,PKD1 inh
COc1ccc(OCc2csc(N)n2)cc1,nt,nt,i,0.95,97,nt,0
CCCCn1cnc2sc(-c3ccccc3)cc2c1=O,29,71,i,0.97,105,1.4,3
S=C(NCCc1ccccc1)N/N=C/c1c(Cl)cccc1Cl,-32,141,i,0.94,99,0.6,0
O=C(O)COc1ccccc1/C=N/NC(=O)CN1CCN(Cc2ccc(Cl)cc2)CC1,nt,nt,i,1.2,103,nt,nt
O=C(O)COc1cccc2nsnc12,nt,nt,i,1,98,-0.6,3
Cn1cnnc1Sc1ccc(CN2CCN(C3CCCC3)C(CCO)C2)o1 (configuration not stated),nt,nt,i,1.1,118,nt,-6
CC(=O)Nc1cc2c(cc1C(=O)c1ccc(C)cc1)OCCO2,nt,nt,i,0.89,107,-2.7,-6
Cc1c(Cl)cccc1Nc1nc(N)nc(CSC(=S)N2CCOCC2)n1,nt,nt,i,0.96,101,nt,-7
CC(C)(c1ccccc1)c1ccc(OCCn2cnc3ccccc3c2=O)cc1,6,88,i,0.99,108,-0.6,-3
Cc1occc1-c1nnc(SCC(=O)NCc2ccco2)n1CC(C)C,9,111,i,0.83,100,-0.5,-8
COc1ccccc1N(CC(O)Cn1c2ccccc2c2ccccc21)S(=O)(=O)c1ccccc1 (configuration not stated),-6,114,i,1,90,-0.7,4
CC1(C)NC(=O)N(CCCCOc2ccc3c(c2)CCC3)C1=O,4,106,i,0.8,122,-2.2,-2
N#CSCC(=O)c1cccc2ccccc12,-197,83,i,1.1,89,-0.9,-2
Cn1cc(CC(=O)NCCN2CCOCC2)c2ccccc21,0,59,i,1.1,100,nt,-1
N/C(=N\OC(=O)c1cccs1)c1ccc(Cl)cc1,nt,nt,i,0.92,95,nt,nt
Cn1nc(-c2ccccc2F)c2cc(C(=O)N3CCN(C(=O)c4ccco4)CC3)sc21,nt,nt,i,0.85,nt,-2.1,-17
COC(=O)c1ccc2c(=O)n3c(nc2c1)SCC(c1ccccc1)=N3,nt,nt,i,0.92,99,-1.1,-2
Nc1ccc(Br)c2c1C(=O)c1ccccc1C2=O,-47,310,i,1.1,97,0.1,9
CCCc1cc(=O)[nH]c(SCC(=O)c2cc(C)n(CC(F)(F)F)c2C)n1,nt,nt,i,0.93,98,nt,3
OCCC1CN(Cc2ccccn2)CCN1C1CCCC1 (configuration not stated),nt,nt,i,0.95,104,nt,-1
COc1ccc2nc3cc(Cl)ccc3c(C#N)c2c1,nt,nt,i,1.1,103,nt,nt
COC(=O)c1ccc(CN(c2ccccc2Cl)S(C)(=O)=O)cc1,nt,nt,i,0.94,101,nt,0
Cc1ccc(N(C(=O)c2ccc(S(=O)(=O)N3CCOCC3)cc2)C2C=CS(=O)(=O)C2)cc1 (configuration not stated),50,72,i,0.79,109,-0.1,-17
C=CCn1c(SCn2nnc3ccccc3c2=O)nnc1C1CCCCC1,nt,nt,i,0.9,102,-1.6,6
COc1ccc(CNCC(O)(c2ccccc2)c2ccccc2)cc1OC,nt,nt,i,0.95,102,nt,7
C/C(=N/NC(=O)c1ccccn1)c1ccco1,-17,52,i,0.95,114,-2.1,-11
O=C(NC(=O)N1CCN(C(c2ccccc2)c2ccccc2)CC1)c1ccccc1,nt,nt,i,0.82,100,nt,nt
O=C(CN1CCN(Cc2ccc(F)cc2Cl)C1=O)NCCc1ccccc1,nt,nt,i,0.92,73,-1.6,-1
CNC(=S)N1N=C(c2ccccc2)CC1c1ccccc1Cl (configuration not stated),nt,nt,i,0.92,89,nt,-4
O=C(c1ccccc1)c1ccc2c(c1)OCCCO2,nt,nt,i,1,89,nt,nt
COc1ccc(-c2csc(NC(=O)c3ccc(S(=O)(=O)N4CCc5ccccc5C4)cc3)n2)cc1,nt,nt,i,0.82,100,-1.6,-1
COc1cc(C(=O)NC(=S)Nc2csc(-c3ccc(F)cc3)n2)cc(OC)c1OC,nt,nt,i,0.95,102,nt,nt
CCCN(CCC(=O)Nc1ccccc1F)CC1CC1,nt,nt,i,0.94,99,-2.4,-5
c1ccc(-c2ccccc2OCCN2CCCCC2)cc1,-69,100,nt,nt,106,-1.2,-12
NNC(=O)c1ccc2c(c1)S(=O)(=O)NNC2=O,-78,101,i,0.96,100,nt,-3
CCCc1nnc(SCC(=O)N2CCCCC2C)n1CC (configuration not stated),-19,95,i,0.94,95,-4.5,-6
COC(=O)Cc1c(C(=O)OC)nnn1-c1ccc(OC)cc1,15,118,i,1,95,nt,-4
Cc1ccnc(NC(=O)c2cc3ccccc3oc2=O)c1,nt,nt,i,0.98,96,nt,-5
OC(COc1ccccc1)CN1CCN(c2ncccn2)CC1 (configuration not stated),22,182,i,1.1,150,-1.1,-2
O=C(NCc1ccccc1)c1cc2nc(C3CC3)cc(C(F)(F)F)n2n1,-31,143,i,0.92,104,-0.3,-8
CCNc1nc(C23CC4CC(CC(C4)C2)C3)cs1,13,132,i,1.1,100,nt,-5
O=C1C2CC=CCC2C(=O)N1c1ncn[nH]1 (configuration not stated),-14,146,i,0.99,103,-2.4,3
COC(CN(C(=O)CCl)C(C(=O)NC1CCCCC1)c1ccc(Cl)cc1)OC (configuration not stated),nt,nt,i,1.1,104,1.1,-6
CCCCn1c(N)nc2ccccc21,nt,nt,i,0.91,102,-0.7,-4
CS(=O)(=O)c1cnc(-c2ccccc2)nc1-c1ccccc1Cl,5,110,i,0.93,98,nt,-1
COC(=O)Cc1ccc(NC(=S)N2CCCC(C)C2)cc1 (configuration not stated),33,126,nt,nt,99,0.4,-11
COc1ccc(NS(=O)(=O)c2cc(NC(=O)c3cccnc3Cl)ccc2N2CCCC2)cc1,nt,nt,i,0.92,104,nt,nt
CCN(C(=O)CN1CCCCC1)C1(C)C(=O)c2ccccc2C1=O,3,115,i,0.93,82,0.0,-15
CCOC(=O)c1ccc(Cl)c(NC(=O)c2ccc(-c3ccccc3)cc2)c1,nt,nt,i,0.76,82,-1.8,-3
COc1ccc(-c2c(C#N)sc(C(N)=O)c2-c2ccc(OC)cc2)cc1,nt,nt,i,1.1,104,nt,nt
COc1ccc(CN2C(=O)c3cccnc3C2Nc2cc(Cl)c(OC)cc2OC)cc1 (configuration not stated),-136,139,i,0.88,101,-2.5,-7
CCC1CC2(C)NC(=O)c3c(sc4c3CC(C)(C)OC4)N2C1=O (configuration not stated),-138,44,nt,nt,94,-0.5,14
O=C(NCc1ccco1)c1cccc2c1C(=O)N(C1CCCCC1)C2,nt,nt,i,0.9,114,3.5,-6
CN(C)C(=O)C(=O)c1cccn1-c1cccc(Cl)c1C#N,nt,nt,i,0.95,105,nt,6
Cn1ncc2c(NNC(=O)c3ccc(Cl)cc3Cl)ncnc21,nt,nt,i,1.1,80,-2.2,-11
CC1(C)CC(=O)C2=C(C1)OC(N)=C(C#N)C2C1C=CCCC1 (configuration not stated),50,153,i,0.95,71,-3.9,-3
Cc1cc(C)c2c(n1)nn1c(N3CCN(c4cccc(Cl)c4)CC3)cc(C)nc21,nt,nt,nt,nt,nt,-1.3,-7
O=c1cc(-c2ccc(Cl)c(Cl)c2)[nH][nH]1,-55,110,i,1,103,-0.8,0
CC(C)CCNC(=O)C1CCC(CNc2c(N3CCC(C)CC3)c(=O)c2=O)CC1 (configuration not stated),nt,nt,i,0.9,100,nt,nt
CC(=O)c1ccc(N2CCN(c3ccc(S(=O)(=O)NCCCN(C)C)cc3[N+](=O)[O-])CC2)cc1,nt,nt,i,0.84,95,nt,-4
# Following part
SMILES,Insulin prom inh,Insulin prom inh cell count,HSV replic up,HSV replic up primary fold,RGS16-Gao,GALR2 agonist,PKD1 inh
CCN(Cc1ccccc1)c1ccc(N=Nc2nn(C)c(C)c2[N+](=O)[O-])cc1,nt,nt,i,0.91,100,-1.1,12
CC1=C(C(=O)Nc2ccccn2)C(c2cccnc2)n2nnnc2N1 (configuration not stated),nt,nt,nt,nt,97,-1.4,10
Nc1ccc(/C=C/C(=O)c2cccs2)cc1,-143,105,i,1.1,105,nt,-5
O=[N+]([O-])c1cc(/C=N/O)ccc1N1CCCC1,7,77,i,0.98,78,nt,0
O=C(NCc1n[nH]c(=S)n1-c1ccc([N+](=O)[O-])cc1)c1ccc(S(=O)(=O)N2CCOCC2)cc1,nt,nt,i,1.1,100,nt,-3
O=C(NNC(=O)c1cc2ccccc2o1)c1ccc(Cl)cc1,nt,nt,i,0.96,97,nt,nt
CCOC(=O)C1CCN(C(=O)CC(NS(=O)(=O)c2ccc(OC)cc2)C(C)C)CC1 (configuration not stated),-23,109,i,0.85,118,-1.9,-6
COc1ccc(C(=O)NC2CCN(C(=O)NC3CCCCC3)CC2)cc1,-14,105,i,0.91,90,-0.8,0
FC(F)(F)c1ccc(Oc2ccc3cc(Br)ccc3c2)nc1,-19,165,i,1.3,99,0.1,0
O=C(NCc1nc2ccccc2[nH]1)C1=C[C@H](c2ccc3c(c2)OCO3)C[C@H](OCCCCO)O1,nt,nt,i,0.88,100,nt,1
COc1cccc(NC(=S)N(CCc2ccc(OC)c(OC)c2)Cc2ccccn2)c1,nt,nt,i,0.96,102,nt,2
Cc1ccc(OCC(O)CN2C(=O)NC(C)(C)C2=O)c(C)c1 (configuration not stated),0,54,i,1.1,98,nt,2

# For reference, some entries already given:
SMILES,Insulin prom inh,Insulin prom inh cell count,HSV replic up,HSV replic up primary fold,RGS16-Gao,GALR2 agonist,PKD1 inh
CC(=O)c1ccc(N2CCN(c3ccc(S(=O)(=O)NCCCN(C)C)cc3[N+](=O)[O-])CC2)cc1,nt,nt,i,0.84,95,nt,-4
CCN(Cc1ccccc1)c1ccc(N=Nc2nn(C)c(C)c2[N+](=O)[O-])cc1,nt,nt,i,0.91,100,-1.1,12
CC1=C(C(=O)Nc2ccccn2)C(c2cccnc2)n2nnnc2N1 (configuration not stated),nt,nt,nt,nt,97,-1.4,10
Nc1ccc(/C=C/C(=O)c2cccs2)cc1,-143,105,i,1.1,105,nt,-5
O=[N+]([O-])c1cc(/C=N/O)ccc1N1CCCC1,7,77,i,0.98,78,nt,0
O=C(NCc1n[nH]c(=S)n1-c1ccc([N+](=O)[O-])cc1)c1ccc(S(=O)(=O)N2CCOCC2)cc1,nt,nt,i,1.1,100,nt,-3
O=C(NNC(=O)c1cc2ccccc2o1)c1ccc(Cl)cc1,nt,nt,i,0.96,97,nt,nt
CCOC(=O)C1CCN(C(=O)CC(NS(=O)(=O)c2ccc(OC)cc2)C(C)C)CC1 (configuration not stated),-23,109,i,0.85,118,-1.9,-6
COc1ccc(C(=O)NC2CCN(C(=O)NC3CCCCC3)CC2)cc1,-14,105,i,0.91,90,-0.8,0
FC(F)(F)c1ccc(Oc2ccc3cc(Br)ccc3c2)nc1,-19,165,i,1.3,99,0.1,0
O=C(NCc1nc2ccccc2[nH]1)C1=C[C@H](c2ccc3c(c2)OCO3)C[C@H](OCCCCO)O1,nt,nt,i,0.88,100,nt,1
COc1cccc(NC(=S)N(CCc2ccc(OC)c(OC)c2)Cc2ccccn2)c1,nt,nt,i,0.96,102,nt,2
Cc1ccc(OCC(O)CN2C(=O)NC(C)(C)C2=O)c(C)c1 (configuration not stated),0,54,i,1.1,98,nt,2

# (list continues)
SMILES,Insulin prom inh,Insulin prom inh cell count,HSV replic up,HSV replic up primary fold,RGS16-Gao,GALR2 agonist,PKD1 inh
COc1ccc(N2CCN(Cc3cc(=O)oc4cc(C)c(Cl)c(C)c34)CC2)cc1,9,60,i,1.1,106,-0.9,1
O=C(O)COc1ccc(/C=N/n2cnc3scc(-c4cccs4)c3c2=O)cc1,-15,113,nt,nt,101,-1.4,3
Cc1ccc(NC(=O)N2CCc3ccccc32)cc1C,-80,134,i,0.95,95,nt,2
CC(Sc1nnc(C(F)(F)F)n1C)C(=O)Nc1ccc(S(N)(=O)=O)cc1 (configuration not stated),nt,nt,i,0.94,93,nt,nt
CCC(C)[C@H](N)c1nnc(SCC(=O)c2ccc(Cl)cc2)o1 (some centres not stated),-36,99,i,0.95,104,-1.4,1
OCC(O)/C=N/Nc1nc2ccccc2s1 (configuration not stated),-11,85,i,0.87,100,nt,4
COc1ccc(N2C(=O)CSC23C(=O)Nc2ccccc23)cc1OC (configuration not stated),nt,nt,i,0.97,97,0.0,-4
CSc1ccc(CNc2ccc(C)c(C)c2)cc1,0,149,i,0.91,101,-2.7,1
COc1ccc(N(C(=O)c2ccco2)C(C(=O)NC2CCCC2)c2ccc(N(C)C)cc2)cc1OC (configuration not stated),-5,187,i,0.97,97,0.5,-11
CN=c1scc(-c2ccc(Br)cc2)n1C,-48,115,i,0.99,121,-1.5,6
NC(=O)C1c2ccccc2CSc2ccccc21 (configuration not stated),nt,nt,i,0.89,101,-3.7,-7
